Screening data deposited in PubChem BioAssay by several laboratories.
Sa RN4220 lethal: growth inhibition of S. aureus RN4220, primary screen, OD600 | AID 1259311, 2017 | 16 h | actives 0.33% (n = 330,000) | inhibition, % (concentration not given with the values);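 active = z-score of -3 or lower and OD600 up to 0.18 on both plates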;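 also: plate controls were untreated cells for no effect and reference antibiotic for full effect; stock transfer was 100 nL into about 80 µL; one replicate is shown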
Sa ugtP lethal: growth inhibition of ugtP-null S. aureus, primary screen, RN4220 ugtP deletion, OD600 | 16 h; some inactives read as strong as hits | growth inhibition, % (test concentration not listed) | actives 0.54% (n = 330,000) | AID 1259309, 2017;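 active = z-score under -3 and OD600 up to 0.15 on both plates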;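 also: plate controls were untreated wells for no effect and antibiotic for full effect; wells of about 80 µL received 100 nL stock; the first replicate is given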
Mtb hypoxia inh: PubChem AID 1159583. M. tuberculosis hypoxia-regulated fluorescent reporter, fluorescence. fluorescence inhibition, % (concentration not given with the values). actives 0.1% (n = 300,000);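 active = 35 to 45% if threefold the growth effect, above 45% if 1.5-fold the growth effect; inactive = the rest, general growth blockers included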;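 also: wells of about 50 µL received 100 nL stock; 0% = vehicle wells and 100% = reference inhibitor wells; whole bacteria with a GFP reporter of the hypoxia response; strong numbers were not always called active; many hits fall short of the cut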
BJeLR viability: MLPCN primary cell-based screen for lethality selective to Ras in HRASV12 cells | BJeLR (HRASV12) viability, CellTiter-Glo ATP luminescence, 48 h; reference of the scale not given here | inhibition, % (concentration not given with the values) | actives 0.17% (n = 300,000) | AID 1554, 2009;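 active = replicate mean above 50%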;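 also: 50 nL library stock added to about 25 µL; numbers are from one replicate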
Autofluor counter: flagged as autofluorescent in microsphere protease counterscreen; fluorescence intensity (test concentration not listed); compound autofluorescence counterscreen, microsphere flow cytometry; active compounds read high; actives 3.1% (n = 360,000);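 active = at least 3 SD above the mean of all compounds, about 16000 in these data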;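 also: 100 nL of 1 mM stock went into each well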
PrP UTR inh: inhibition of PrP 5' UTR reporter expression. inhibition, % (no concentration beside the values). actives 0.35% (n = 340,000). cell-based PrP 5' UTR mRNA reporter, plate reader;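 active = every replicate at 50% or more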;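 also: 0 = median of the neutral control wells; tested in H4 reporter cells; numbers are from one replicate; inactives centre near -14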
Mtb hypoxia inh growth: second read-out of Mtb hypoxia inh, no call of its own (marks repeat the call); growth inhibition, %; measured here: M. tuberculosis growth (absorbance);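 0% = vehicle and 100% = reference antibiotic; read after six days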
Starred values were filed as active, the others as inactive; x = not tested or not shown; & = joins results of further samples.

1: C/C(=N/NC(=O)c1ccncc1)c1ccc(NC(=O)c2ccccc2)cc1
2: O=C(NNc1cc(N2CCOCC2)nc(N2CCOCC2)n1)C12CC3CC(CC(C3)C1)C2
3: CC1CN(C(C)CO)C(=O)Cc2cc(NC(=O)CCC(F)(F)F)ccc2OC1CN(C)C(=O)Nc1ccccc1 (stereo not given)
4: O=C(CN1C(=O)CSc2ccccc21)Nc1ccccc1C(=O)N1CCOCC1
5: S=C(NCc1ccccc1)NN1CCOCC1
screen / no.	1	2	3	4	5
Sa RN4220 lethal	x	2.5	3.0	2.4	2.7
Sa ugtP lethal	x	12	1	2	9
Mtb hypoxia inh	x	5	4	3	2
Mtb hypoxia inh growth	x	-5	11	7	-10
BJeLR viability	-1	5	x	4	-10
Autofluor counter	4051	2532	x	22009*	4508
PrP UTR inh	-15	-14	x	-24	-14

6: O=[N+]([O-])c1ccc(COn2nnc3ccccc32)cc1
7: CCOc1ccc(CCNC(=O)C2CCCN(C(=O)N(C)C)C2)cc1OCC (stereo not given)
8: CC(=O)NC(C(=O)NCC(N)=O)C(C)C (stereo not given)
9: Cn1c(=O)c2c(nc(OCc3ccccc3)n2C)n(C)c1=O
10: O=C(/C=C/c1ccc2c(c1)OCO2)NCCS(=O)(=O)N1CCN(c2ccc(F)cc2)CC1
screen / no.	6	7	8	9	10
Sa RN4220 lethal	-1.1	5.1	-1.2	6.2	-0.6
Sa ugtP lethal	5	4	-1	6	0
Mtb hypoxia inh	x	7	3	10	2
Mtb hypoxia inh growth	x	6	5	6	11
BJeLR viability	-11	9	-3	9	-9
Autofluor counter	3959	5382	5756	5338	4765
PrP UTR inh	-37	-17	-11	-28	-10

11: CCOc1ccc(N(CC(=O)N2CCCC2)S(=O)(=O)c2ccc(F)cc2)cc1
12: CCOC(=O)N1CCN(c2c(-c3ccc(C)cc3)c(=O)c2=O)CC1
13: COc1cc2c(cc1OC)C1=C(C#N)CCC(=NS(=O)(=O)c3ccccc3)N1CC2
14: CN(C)CCCNCC(=O)NN(c1ccccc1)c1ccccc1
15: CSc1cccc(NC(=S)N2CCC(N(C)C3CCCCCC3)CC2)c1
screen / no.	11	12	13	14	15
Sa RN4220 lethal	5.2	2.4	18	2.6	2.6
Sa ugtP lethal	13	2	-4	6	7
Mtb hypoxia inh	4	7	-4	8	14
Mtb hypoxia inh growth	4	9	-1	5	6
BJeLR viability	1	-3	x	0	-8
Autofluor counter	4824	3226	x	x	3237
PrP UTR inh	-15	1	x	x	-17

16: COc1ccccc1N1CCN(C(=O)CN(Cc2ccccc2)S(C)(=O)=O)CC1
17: COCCN(C(=O)CNC(=O)c1ccco1)C(C(=O)NC1CCCC1)c1cccs1 (stereo not given)
18: CC(NC(=O)C(=O)N1CCOCC1)C(c1cccs1)N1CCN(c2ccc(F)cc2)CC1 (stereo not given)
19: Cc1ccc(C(=O)COC(=O)COc2ccc(C)c(C)c2)cc1
20: O=C(/C=C/c1ccccc1)NC1CC2CCCC(C1)N2Cc1ccccc1 (stereo not given)
screen / no.	16	17	18	19	20
Sa RN4220 lethal	-0.5	0.4	2.3	0.0	-0.6
Sa ugtP lethal	11	6	6	11	-8
Mtb hypoxia inh	4	x	1	5	-11
Mtb hypoxia inh growth	1	x	9	9	-5
BJeLR viability	5	-2	15	1	5
Autofluor counter	11854	3714	5356	5334	x
PrP UTR inh	-23	-23	-8	-28	x

21: O=C(/C=C\c1ccc2c(c1)OCO2)Nc1nnc(SCC(=O)OCc2ccccc2)s1
22: O=C(NCc1ccccc1)[C@@H]1C[C@H]1[C@@H](NP(=O)(c1ccccc1)c1ccccc1)c1ccccc1
23: COC(=O)C1CCN(C(=O)[C@H](C)NC(=O)C2CC(=O)N(c3ccc(F)cc3)C2)CC1 (stereo not given in full)
24: CC(C)(C)C(=O)Nc1nnc(SCC(=O)NCc2cccs2)s1
25: CN1CCN(c2oc(-c3ccccc3Cl)nc2S(=O)(=O)c2ccccc2)CC1
screen / no.	21	22	23	24	25
Sa RN4220 lethal	4.8	x	1.4	3.4	5.9
Sa ugtP lethal	-5	x	8	-2	11
Mtb hypoxia inh	15	x	9	-2	-5
Mtb hypoxia inh growth	0	x	2	13	9
BJeLR viability	5	-8	-4	-9	1
Autofluor counter	x	3079	5449	8068	6301
PrP UTR inh	x	-5	-18	-20	-12

26: CN1CCN(C(=O)COCc2cc(-c3ccc4c(c3)OCO4)on2)CC1
27: O=C(Cc1n[nH]c(=O)[nH]c1=O)NN=Cc1c(O)ccc2ccccc12
28: COc1ccc(S(=O)(=O)N2CN(Cc3ccco3)c3nc4ccccc4nc32)cc1
29: O=C(CSc1nnc(-c2ccccc2)n1-c1ccc(Cl)cc1)NC1CCS(=O)(=O)C1 (stereo not given)
30: CC(=O)Oc1ccc(OC(C)=O)c(SCCCCCCl)c1
screen / no.	26	27	28	29	30
Sa RN4220 lethal	-2.3	4.2	-2.4	2.1	6.7
Sa ugtP lethal	0	2	-18	-1	7
Mtb hypoxia inh	-2	-6	-6	-4	6
Mtb hypoxia inh growth	-10	-1	8	5	9
BJeLR viability	-1	x	10	3	26
Autofluor counter	4452	x	8646	1962	4267
PrP UTR inh	-9	x	-64	-27	-5

Quoted at random: three entries already listed
28: COc1ccc(S(=O)(=O)N2CN(Cc3ccco3)c3nc4ccccc4nc32)cc1
30: CC(=O)Oc1ccc(OC(C)=O)c(SCCCCCCl)c1
29: O=C(CSc1nnc(-c2ccccc2)n1-c1ccc(Cl)cc1)NC1CCS(=O)(=O)C1 (stereo not given)
screen / no.	28	30	29
Sa RN4220 lethal	-2.4	6.7	2.1
Sa ugtP lethal	-18	7	-1
Mtb hypoxia inh	-6	6	-4
Mtb hypoxia inh growth	8	9	5
BJeLR viability	10	26	3
Autofluor counter	8646	4267	1962
PrP UTR inh	-64	-5	-27

Continued:
31: Cc1ccnc(NC(=O)c2ccc(NC(=O)c3ccco3)cc2)c1
32: CCOC(=O)Cc1csc(NN=Cc2ccc(C(F)(F)F)cc2)n1
33: CCOc1cc(NC(=S)NCCCN2CCOCC2)c(OCC)cc1NC(=O)C1CC1
34: O=C(NC(=S)Nc1ccccc1)c1cc([N+](=O)[O-])ccc1N1CCOCC1
35: CC1=Nn2c(nnc2C2CCCCC2)SC1
screen / no.	31	32	33	34	35
Sa RN4220 lethal	2.0	5.3	6.2	2.3	4.4
Sa ugtP lethal	-12	3	2	2	7
Mtb hypoxia inh	x	-3	9	-13	10
Mtb hypoxia inh growth	x	2	11	0	7
BJeLR viability	3	x	10	6	-1
Autofluor counter	4247	x	1948	2107	4200
PrP UTR inh	-90	x	-5	-2	-14

36: O=C(COc1ccc(Cl)cc1)NCc1n[nH]c(=O)c2ccccc12
37: COCCN1C(=O)NC(c2ccc(Br)cc2)C(C(=O)OC)=C1C (stereo not given)
38: OCCC1CN(Cc2nc(-c3ccccc3)cs2)CCN1Cc1ccc(F)cc1 (stereo not given)
39: O=C(COC(=O)Cc1ccccc1)NC(=O)NC1CCCCC1
40: c1ccc2c(CSCCc3ccncc3)cccc2c1
screen / no.	36	37	38	39	40
Sa RN4220 lethal	2.0	6.3	x	-0.8	2.6
Sa ugtP lethal	8	4	x	8	5
Mtb hypoxia inh	-4	4	x	2	x
Mtb hypoxia inh growth	-1	3	x	-6	x
BJeLR viability	14	x	13	-4	5
Autofluor counter	6277	x	4116	6425	3398
PrP UTR inh	-7	x	-6	-9	-6

41: CCCC1C[C@@]1(CCC)C(NP(=O)(c1ccccc1)c1ccccc1)c1ccc(C(=O)OC)cc1 (stereo not given in full)
42: O=C(NCCOc1ccc(F)cc1)C1CCC(=O)N(CCCN2CCOCC2)C1 (stereo not given)
43: CN1CCN(c2nc(-c3cccnc3)nc3scc(-c4ccccc4)c23)CC1
44: COc1cc(C2CC(=O)Oc3ccc(C(C)(C)C)cc32)cc(OC)c1OC (stereo not given)
45: CC(O)C(=O)NN=Cc1cccc2ccccc12 (stereo not given)
screen / no.	41	42	43	44	45
Sa RN4220 lethal	-4.5	5.3	8.4	6.0	6.0
Sa ugtP lethal	20	7	5	4	-11
Mtb hypoxia inh	6	15	21	-6	12
Mtb hypoxia inh growth	0	7	33	3	-8
BJeLR viability	x	-4	8	x	x
Autofluor counter	x	5062	4642	2878	x
PrP UTR inh	x	-11	-37	-25	x

46: CCOc1ccc(-n2c(SCC(N)=O)nc3c(c2=O)SCC3)cc1
47: CCCCS(=O)(=O)C(=C1Nc2ccccc2N1)S(=O)(=O)CCCC
48: O=C1CCC(=O)N1c1ccc(S(=O)(=O)Nc2ccc(Br)cc2)cc1
49: O=c1c2ccccc2c(-c2ccccc2)nn1-c1ccccn1
50: O=[N+]([O-])c1ccc(OC(F)F)c(C=Nn2cnnc2)c1
screen / no.	46	47	48	49	50
Sa RN4220 lethal	-0.5	-21	-0.2	4.9	2.4
Sa ugtP lethal	-1	-5	9	5	9
Mtb hypoxia inh	5	x	1	14	-2
Mtb hypoxia inh growth	1	x	11	0	-9
BJeLR viability	7	-1	2	-7	x
Autofluor counter	4187	3116	4265	2099	x
PrP UTR inh	-7	-7	-24	-22	x

51: O=C(Nc1nnc(-c2ccccc2)s1)c1ccc(Cl)c(S(=O)(=O)N2CCOCC2)c1
52: CCOc1ccc(NC(=S)N(CCc2c(C)[nH]c3ccccc23)Cc2ccco2)cc1
53: COc1ccc(-c2nnc(-c3cc4c(ccc5ccccc54)oc3=O)o2)cc1
54: Cc1ccc(CNC(=O)CCN2C(=O)[C@@H]3Cc4ccccc4CN3C2=O)cc1
55: CC(=O)c1cc(CN2CCC(C(=O)Nc3cccc(-c4cscn4)c3)CC2)cs1
screen / no.	51	52	53	54	55
Sa RN4220 lethal	1.4	-7.3	-1.6	4.8	-0.2
Sa ugtP lethal	6	2	-2	9	-6
Mtb hypoxia inh	x	0	8	-6	-1
Mtb hypoxia inh growth	x	5	2	-4	6
BJeLR viability	-7	3	-5	3	1
Autofluor counter	x	6259	4215	4330	7331
PrP UTR inh	x	5	-6&-8	-8	5

56: CC(NC(=O)c1ccc([N+](=O)[O-])cc1Cl)C1CC2CCC1C2 (stereo not given)
57: O=C(CN(c1ccc(F)cc1)S(=O)(=O)c1ccccc1)NCc1ccco1
58: CC(C)(C)CN1CCNC[C@H]1Cc1cccc2ccccc12
59: Cc1cccc(NC(=S)NCCc2ccccc2)c1C
60: Cc1ccc2nc(NC(=O)C3CCN(S(=O)(=O)c4cnc[nH]4)CC3)sc2c1
screen / no.	56	57	58	59	60
Sa RN4220 lethal	16	-0.5	-10	-1.3	-4.5
Sa ugtP lethal	7	1	-19	10	9
Mtb hypoxia inh	12	x	3	3	3
Mtb hypoxia inh growth	6	x	11	9	1
BJeLR viability	-3	0	-3	-2	3
Autofluor counter	6479	4236	6983	3614	7344
PrP UTR inh	-15	-30	-9	-17	-33

61: COc1ccc(CNC(=O)C(NC(C)=O)C(=O)Nc2ccc(C(C)C)cc2)cc1 (stereo not given)
62: CCOc1ccc(C(C)NC(=O)c2cccnc2OCC)cc1OCC (stereo not given)
63: O=C(NCCCN1CCCC1=O)c1cccc(NS(=O)(=O)c2ccc(Br)cc2)c1
64: C#CCNC(=O)/C=C/c1ccc(OC)cc1
65: CC(=O)c1ccc(N2CCN(CC(O)COCc3ccco3)CC2)cc1 (stereo not given)
66: Cn1c(=O)c2c(ncn2CCN(CCO)Cc2ccccc2)n(C)c1=O
67: CN(CC(=O)Nc1ccc(Cl)c(C(F)(F)F)c1)C(=O)c1cc(=O)[nH]c2ccccc12
screen / no.	61	62	63	64	65	66	67
Sa RN4220 lethal	-1.0	-2.2	-2.6	x	2.7	6.0	-0.7
Sa ugtP lethal	6	0	-4	x	7	8	-6
Mtb hypoxia inh	-1	6	-1	x	14	9	3
Mtb hypoxia inh growth	6	8	-1	x	1	9	11
BJeLR viability	20	-10	-1	4	-2	3	1
Autofluor counter	1982	4535	5489	3654	2795	20125*	5177
PrP UTR inh	-6	-3	-9	-21	-17	-34	-12
